RE007 growth inh: qHTS Assay for Inhibitors of the HIV-1 protein Vpr; S. pombe RE007 Vpr strain, BacTiter-Glo ATP luminescence, 24 h; control for the full effect not named in the record; Potency, µM (doses to about 92.2 µM), without a hit: at the top dose activity change, negative = less growth; hit rate 0.21% among 360,000; active = well fitted falling curve with a large enough effect; inconclusive = small, poorly fitted or top-dose-only effect; inactive = no such curve, though single readings can be large or run the other way;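 further: nearly all actives have a fitted effect of over 50% in size; the assay follows cell death caused by Vpr and the record does not say whether a fall means rescue or toxicity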
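Fission yeast RE007 carrying one integrated HIV-1 vpr copy, seeded at OD 0.01 in PMG+AL medium with 23 nL pinned compound. Grown 24 h at 30 degrees; viability read by BacTiter-Glo luminescence after 5 min.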
StopGo reporter: High Throughput Screening for Foot and Mouth Disease Virus Antivirals; Potency, µM (highest dose often 57.9 µM), without a hit: at the top dose signal change, negative = less light; human cells with a luciferase reporter of 2A StopGo recoding; control for the full effect not named in the record; hit rate 1.2% among 410,000; active = well fitted falling curve with a large enough effect; inconclusive = small, poorly fitted or top-dose-only effect; inactive = no such curve, though single readings can be large or run the other way; tested in HEK293T cells; further: nearly all actives have a fitted effect of over 45% in size; luciferase light after 4 h
The depositor's hits bear a star; ? = inconclusive; [ ] = dose if it differs, or a comment. On the % scale 0 is the no-effect control and ±100 the full control effect; potency means the concentration at half of the fitted maximal effect.

SMILES | RE007 growth inh | StopGo reporter
CCOC(=O)[C@]12CCCC=C1N(Cc1cccc3ccccc13)C(=O)[C@H](CC(=O)NCCCN1CCCC1=O)C2 | 9% | -16%
COc1ccc(Cc2c(-c3cccc(Cl)c3)nc3cc(C)c(Br)c(C)n23)c(C)c1 | -4% | -14%
Cc1nccn1CCC(=O)NC1CC(C)(C)Cc2c1cnn2-c1ccccc1 (stereo not given) | -4% | -20%
C[C@@H]1OC(C2CCCCC2)N(C)[C@H]2C[C@H]3c4[nH]c5ccccc5c4CCN3C[C@@H]12 (stereo not given in full) | 0% | -12%
CCc1nc2ccc(C(=O)N(CC)CCN(C)C)cn2c1N(C=O)CCC(C)C | 0% | -12%
COc1ccc(Cn2cc(CN3CC(N4CCCCC4)CS3(=O)=O)nn2)cc1 (stereo not given) | 3% | -23%
Cc1cccc(C)c1NC(=O)C(c1ccc(C(F)(F)F)cc1)n1c(=O)c(-c2ccccc2)nc2ccccc21 (stereo not given) | ? | 6%
CCC(C)C(N)C1=NC(C(=O)N[C@@H](CC(C)C)C(=O)N[C@H](CCC(=O)O)C(=O)N[C@H](C(=O)N[C@H]2CCCCNC(=O)[C@H](CC(N)=O)NC(=O)[C@@H](CC(=O)O)NC(=O)[C@H](Cc3cnc[nH]3)NC(=O)[C@@H](Cc3ccccc3)NC(=O)[C@H]([C@@H](C)CC)NC(=O)[C@@H](CCCN)NC2=O)[C@@H](C)CC)CS1 (stereo not given in full) | 6%[18.4 µM] | -15%
CSc1ccc(/C=C/C(=O)OCC(=O)NC2CCCC2)cc1 | -7% | -15%
CC1(Cc2cc(Cl)ccc2C(F)(F)F)C(=O)Nc2ccc(-c3ccc(F)c(Cl)c3)cc21 (stereo not given) | 4% | 0%
Cc1cc(Cl)c2oc(C(=O)N3CCOCC3)c(C)c2c1 | -9% | 57%[activator]
CC(Oc1ccccc1)C(=O)N1CCC2(CC1)Oc1ccc(F)cc1C(=O)C21CC(c2ccccc2)=NO1 (stereo not given) | 4% | -17%
CCOC(=O)[C@]12CCCC=C1N(Cc1cccc3ccccc13)C(=O)[C@H](CC(=O)NCc1cccs1)C2 | -9% | -3%
CC(C)Oc1ccc(CN2CCC2(C)C(=O)Nc2ccc(Cl)c(Cl)c2)cc1 (stereo not given) | -1% | -24%
O=[N+]([O-])c1cccnc1C1OCCO1 | -14% | -5%
Cc1ccc(S(=O)(=O)N2C[C@H]3N(C(=O)OC(C)C)N(C(=O)OC(C)C)C[C@H](OC(=O)NCc4ccco4)[C@@]3(O)C2)cc1 | -12% | -12%
CCCCCC(=O)N1C[C@H](n2cc(-c3ccc(F)cc3)nn2)[C@@H](O)C[C@@H]1c1ccc(OC)cc1 | 2% | -8%
COc1ccc(CNC(=O)Nc2nnc([C@@H]3C[C@H](O)[C@@H](CO)O3)s2)cc1 | 0%[18.4 µM] | -5%
O=C(c1cc(-c2ccncc2)nc2ccccc12)N1CCCC(C(F)(F)F)C1 (stereo not given) | -1% | -24%
O=C(Nc1c(-c2ccc(Cl)cc2)[nH][nH]c1=O)c1ccc(Br)cc1 | -1% | -17%
CCOC(=O)[C@]12CCCC=C1N(Cc1ccco1)C(=O)[C@H](CC(=O)NCc1ccc(OC)c(OC)c1)C2 | 9% | -18%
O=C1NC[C@H](CCCCN2CCN(CCc3ccccc3)C(=O)C2=O)N(CCc2ccc(O)cc2)C1=O | -7% | -22%
COc1ccc(Br)c(C=O)c1OS(=O)(=O)c1ccc(C)cc1 | 0% | -11%
CC(C)c1ccc(NC(=O)C(c2ccccc2)N(C)C(=O)CCc2c[nH]c3ccccc23)cc1 (stereo not given) | 7% | -19%
CC[C@H]1CN2CC[C@@]3(C(=O)Nc4ccccc43)[C@@H]2C[C@@H]1/C(=C\OC)C(=O)OC | -1% | -9%
Continued:
SMILES | RE007 growth inh | StopGo reporter
N#Cc1ccc(-c2nc3ccc(Cl)cn3c2Cc2ccccc2C(F)(F)F)cc1 | -13% | -2%
CCOCCCNC(=O)c1ccc(CN2CCc3ccccc3C2)cc1 | 6% | -25%
CN1NC(c2ccccc2)NN(C)C1=O | 10% | 11%
Cc1ccc(Cc2c(-c3cccc(Cl)c3)nc3c4ccccc4ccn23)cc1 | -20% | 0%
CC(=O)N1Cc2cc(C(=O)NCc3cccc(F)c3)nc(-c3cccc(C4=CCCC4)c3)c2[C@H]1CCO | 1% | -27%
N#CC(=C1C=CC(=NO)C(Cl)=C1)c1ccccc1 | ? | -5%
CCc1nc2c(OCC=C(C)C)cccn2c1N(C)C(=O)c1ccc(OC)cc1 | 0% | ?
C[C@H]1CN([C@@H](C)CO)S(=O)(=O)c2ccc(-c3cncnc3)cc2O[C@H]1CN(C)C(=O)NC1CCCC1 | -9% | -9%
COC(=O)[C@]12CCCCC=C1N(CCc1ccc(OC)c(OC)c1)C(=O)[C@H](CC(=O)NCCCN1CCCC1=O)C2 | 1% | -2%
CC1(C(=O)NCc2ccccc2Br)CCN1Cc1ccc2ccccc2c1 (stereo not given) | -18% | -13%
NC(=O)c1cccc(-c2ccnc3c2CC(C(=O)Nc2ccccc2)O3)c1 (stereo not given) | -4% | -23%
c1ccc(Cn2c(Cn3c(-c4cnccn4)nc4ccccc43)nc3ccccc32)cc1 | 2% | -27%
CCCS(=O)(=O)NC(=O)C1(C)CCN(C(=O)c2cc(C)n(C(C)(C)C)n2)C1 (stereo not given) | -2% | -12%
COc1cccc(S(=O)(=O)Nc2ccc3c(c2)C(=O)N(C)C[C@H](OC)[C@H](C)CN[C@@H](C)CO3)c1 | -5% | -7%
CCCCC[C@@H]1CCCCC[C@H](O)C[C@H](O)[C@@H](O)/C=C/C(=O)O1 | 7% | -18%
COC(=O)C(C(=O)OC)c1ncccc1NS(=O)(=O)c1ccc(C)cc1 | 6% | -17%
COc1ccc(-c2csc(NC(C)c3nc4cc(Cl)c(N5CCCCC5)cc4n3CCOCCO)n2)cc1 (stereo not given) | -13% | -20%
Cc1ccc(C(=O)C=Cc2ccc3c(c2)OCO3)c(C)c1 | -18% | 7%
CCOC(=O)C1(C)CCCN(C(=O)c2cccc(C#N)c2)C1 (stereo not given) | 0% | -25%
CC(C)C[C@H]1CN(CCCC[C@@H]2CNC(=O)C(=O)N2Cc2ccccc2)C(=O)C(=O)N1CC1CCCCC1 | -5% | -7%
CCCNC(=O)c1cc(C2CCCCN2S(=O)(=O)c2ccc(F)cc2F)on1 (stereo not given) | 11% | 2%
CC(C)COC(=O)N(C)C[C@@H]1OCc2cn(nn2)CCCC(=O)N([C@@H](C)CO)C[C@H]1C | -15% | 0%
Cn1c(Nc2ccc(F)cc2)nc2cc(-c3ccsc3)sc2c1=O | 11% | 15%
CCNC(=O)C1(C)CCCN(C(=O)c2cccc(C)c2C)C1 (stereo not given) | 6%[18.4 µM] | -16%
N#CC1=C(Nc2ccccc2Cl)SC(c2ccncc2)NC1=O (stereo not given) | -15%[18.4 µM] | -13%
Next results
SMILES | RE007 growth inh | StopGo reporter
CCc1nc2c(OCCOc3ccccc3)cccn2c1N(C)C(=O)c1cccs1 | ? | ?
COC(=O)C(Sc1ccc(Cl)cc1)C1SC(=S)N(Cc2ccccc2)C1=O (stereo not given) | 0% | 32µM*
CCC(C)C(CO)NC(=O)/C=C/[C@H]1O[C@@H](n2cnc3c(NC(=O)c4ccccc4)ncnc32)[C@H](O)[C@@H]1O (stereo not given in full) | 11% | -3%
COc1ccc(F)cc1-c1cc(C(=O)NCc2cccc(Cl)c2)[nH]n1 | 8% | -12%
CC1(C(=O)NS(=O)(=O)C2CC2)CCCN(C(=O)c2ccccc2C(F)(F)F)C1 (stereo not given) | 2% | -2%
COc1ccc(-c2csc(C(C)(O)c3cccc(F)c3)n2)cn1 (stereo not given) | 0% | ?
CCOC(=O)[C@]12CCC=C1N(Cc1ccccc1)C(=O)[C@H](CC(=O)NCC1CCCCC1)C2 | -11% | 8%
C[C@@H]1CCCCO[C@H](CN(C)C(=O)Nc2cccc3ccccc23)[C@@H](C)CN([C@H](C)CO)C(=O)c2cc(N(C)C)ccc2O1 | -38% | -5%
Cc1[nH]cnc1CN1CCc2c(c3ccccc3n2C)C1=O | -1%[18.4 µM] | -18%
CCc1nc2ccc(C(=O)N(C)CCCN(C)C)cn2c1N(CC)CCOC | -7% | -7%
Cc1ccc(S(=O)(=O)NC(=O)C2(C)CCN2C(=O)c2cccc(F)c2)cc1 (stereo not given) | 4% | -4%
O=C(Nc1cccc2ccccc12)N1Cc2ccccc2-n2nncc2C1 | 7% | 0%
Nc1ccc(Nc2ccncc2)cc1 | 1% | -14%
Cc1cccc(NC(=O)COc2cccc3c2CCNC3=O)c1 | 12% | -6%
O=C(Nc1c(-c2ccccc2)[nH][nH]c1=O)c1cccs1 | -1% | -18%
CN1OC[C@@H]2CN[C@H](c3cccc(Oc4ccccc4)c3)C[C@@H]21 | 9% | -2%
CNC[C@@H]1OCc2ccccc2-c2c(n(C)c3ccccc23)C(=O)N([C@H](C)CO)C[C@H]1C | 3% | -24%
CCC(C)Sc1nnc(NC(=O)c2ccco2)s1 (stereo not given) | -15% | 10%
CCCCN1C(N)=NC[C@@H]1CC1CCCCC1 | -2% | -15%
CC(C)NC(=O)N1Cc2cc(C(=O)NC3CCCC3)nc(-c3cccc(-c4cccnc4)c3)c2[C@H]1CCO | -3% | -20%
O=C(NCC1=C(c2ccc3ccccc3c2)C[C@@H]2CC[C@H]1N2Cc1ccco1)c1ccncc1 | 5% | -13%
CCc1nc2cc(NC(=O)C3(C)CCCN(C(C)C)C3)ccc2o1 (stereo not given) | -15%[18.4 µM] | -15%
Cc1ccc(Nc2n[nH]c(=S)s2)c(C)c1 | -3% | ?
CC(NC(=O)c1cc(COc2ccc(-n3cncn3)cc2)on1)c1ccc(F)cc1 (stereo not given) | 14% | 11%
COc1cc(CC(=O)N2CCN(S(=O)(=O)c3ccc(C(C)C)cc3)CC2)cc(OC)c1OC | -5% | ?
(listing goes on)
SMILES | RE007 growth inh | StopGo reporter
C[C@@H]1CN([C@@H](C)CO)C(=O)CCCn2nncc2CO[C@@H]1CN(C)C(=O)c1cc(-c2ccccc2)on1 | 8% | ?
CCCC[n+]1cc(=N)o[n-]1 | -4% | -4%
COc1ccccc1CNC(=O)COC(=O)C1CCN(S(=O)(=O)c2c(Cl)cccc2Cl)CC1 | -10% | -9%
O=C1NC(=O)C(Cc2ccc(O)cc2)N1 (stereo not given) | -2% | -20%
CCN(CC)C(=O)C1=C(C)N(CCCN2CCCC2=O)C(=O)C(CC(=O)NCCCCc2ccccc2)C1 (stereo not given) | 0% | -1%
c1cc(-c2ccoc2)n2ccnc2c1 | 8%[18.4 µM] | 2%
O=c1[nH]c2ccccc2n1C1CCN(C(c2cccs2)c2nnnn2-c2ccc3c(c2)OCCO3)CC1 (stereo not given) | 1% | 7%
COc1ccc(C(O)c2nc(-c3ccc(F)c(Cl)c3)cs2)cc1 (stereo not given) | ? | 5%
CCc1nc2ccc(C(=O)Nc3cccc(OC)c3)cn2c1N(C)CCCc1ccccc1 | ? | -9%
O=C1Nc2ccccc2-n2nnnc2C1N1CCN(c2ccc(F)cc2)CC1 (stereo not given) | -10% | -9%
Cc1ccc(-c2cnc(C(O)c3cc(F)cc(Cl)c3)[nH]2)cc1 (stereo not given) | -9%[18.4 µM] | 13%
C[C@]12CC[C@@H](O)CC1=CC(=O)C1C2CC[C@]2(C)C(=O)[C@H](O)CC12 (stereo not given in full) | 6% | -23%
COC(=O)c1ccc2nc(-c3cccc(Br)c3)c(Cc3ccccc3)n2c1 | 1% | -22%
O=C(NCCc1nc(-c2ccccc2Cl)no1)C1CCCCC1 | 2% | -12%
CC1(C)CC(=O)C2=C(C1)NC(=O)CC2 | 11%[18.4 µM] | ?
O=CNc1cc(-c2cccc(F)c2)cn2c(-c3ccc(F)cc3)cnc12 | 6% | -22%
Cc1n[nH]c(=O)n(N=Cc2cccs2)c1=O | -8% | -8%
COc1ccc(NC(=O)C2(C)CCN2CCOc2ccc(C)cc2)cc1OC (stereo not given) | -9%[18.4 µM] | -13%
CCC(=O)N1CCCC(C(=O)Nc2ccc3cn[nH]c3c2)CC1 (stereo not given) | 3% | 2%
CCOC(=O)Cc1csc(NC(=O)c2c(C)noc2C)n1 | 11% | -28%
COC(=O)C[C@H]1C[C@H]2c3cc(NC(=O)C4CCOCC4)ccc3O[C@H]2[C@@H](CO)O1 | -10% | -14%

Pulled by structure from the list above (7):
SMILES | RE007 growth inh | StopGo reporter
CC1(C)CC(=O)C2=C(C1)NC(=O)CC2 | 11%[18.4 µM] | ?
COC(=O)c1ccc2nc(-c3cccc(Br)c3)c(Cc3ccccc3)n2c1 | 1% | -22%
C[C@@H]1CN([C@@H](C)CO)C(=O)CCCn2nncc2CO[C@@H]1CN(C)C(=O)c1cc(-c2ccccc2)on1 | 8% | ?
COc1ccc(NC(=O)C2(C)CCN2CCOc2ccc(C)cc2)cc1OC (stereo not given) | -9%[18.4 µM] | -13%
C[C@]12CC[C@@H](O)CC1=CC(=O)C1C2CC[C@]2(C)C(=O)[C@H](O)CC12 (stereo not given in full) | 6% | -23%
O=c1[nH]c2ccccc2n1C1CCN(C(c2cccs2)c2nnnn2-c2ccc3c(c2)OCCO3)CC1 (stereo not given) | 1% | 7%
CCC(=O)N1CCCC(C(=O)Nc2ccc3cn[nH]c3c2)CC1 (stereo not given) | 3% | 2%

Screens from PubChem.

The list is partial; rates above refer to the full screens.
